NPYLR7 agonist: activates Aedes aegypti NPYLR7 receptor | activation, % at 10 µM | HEK293T NPYLR7/Galpha15, GCaMP6s calcium fluorescence | AID 1259423 | 0.15% of 270,000 active; in the data active means activation above about 40%;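 further: 0% = vehicle and 100% = reference agonist at the receptor; some compounds past the cut are filed as inactive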
NPYLR7 agonist max-min: recorded beside NPYLR7 agonist, whose call it bears; activation, %; measured here: Max-Min RFU normalised activation; some inactives read as strong as hits;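 span of the calcium signal over five minutes; 0% = vehicle and 100% = native peptide agonist; compound fluorescence can raise it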
* marks the source's active call; other numbers are inactive results; & = joins results of further samples. Not all compounds are listed, so the mix of outcomes need not match the whole.

Each structure is followed by: NPYLR7 agonist | NPYLR7 agonist max-min
Cc1ccc(N=Nc2c(O)[nH]c3ccc([N+](=O)[O-])cc23)cc1C
  -3 | -9
COc1ccc2[nH]c3c(c2c1)CCN(C(=O)C=C(C)C)C3c1ccc(COC(C)=O)o1 (centres undefined)
  5 | 4
CN1CCC(Nc2cc(Cl)ccc2OCC(F)(F)F)C1=O (centres undefined)
  -4&-16 | -4&-16
COc1ccc(C(=O)N=Nc2c(O)n(CN3CCCCC3)c3ccccc23)cc1OC
  -7 | -15
O=c1[nH][nH]c2c1SCc1ccccc1-2
  3 | 4
C[n+]1ccccc1CCC#N
  -9 | -12
COc1ccc(S(=O)(=O)Oc2cc(CN(C(=O)c3ccccc3F)C3CC3)ccc2OC)cc1
  -6 | 6
Cc1ccc(-c2noc(CCCN3CCN(S(=O)(=O)c4cccc(Cl)c4)CC3)n2)cc1F
  -3 | -5
Cc1nc(-c2cccc(F)c2)nc(N2CCN(S(=O)(=O)c3ccc(Cl)c([N+](=O)[O-])c3)CC2)c1C
  6 | 18
COc1ccc(Br)cc1-c1nnc2n(C(C)C)c3c(=O)[nH]c(=O)n(C)c3n12
  9 | 4
CCOC(=O)c1c(C)c(=O)oc2c1c(=O)[nH]n2-c1ccccc1
  -7 | -6
C/C=C\C(=O)Nc1cc(C)nn1-c1nc(-c2ccc(C)cc2)cs1
  9 | 3
Cc1cccc2nc(-c3cccc(F)c3)c(NC3CCCCC3)n12
  -5 | 2
CCN1C(=O)NC(c2ccccc2Cl)C(C(=O)OCCc2ccccc2)=C1C (centres undefined)
  -8 | -13
O=C1/C(=C\c2ccc(F)c(F)c2)CS(=O)(=O)c2ccc(Cl)cc21
  4 | 4

Following part:
Each structure is followed by: NPYLR7 agonist | NPYLR7 agonist max-min
Oc1oc(-c2cccc3ccccc23)nc1C=Nc1ccc(Cl)cc1
  -2 | -6
CCC(C)c1ccc2oc(-c3ccc(NC(=O)c4ccc(OC)c(OC)c4)cc3)nc2c1 (centres undefined)
  0 | 0
O=C(Cn1c(=O)oc2ccccc21)Nc1nc2ccc(Cl)cc2s1
  1 | -3
COc1cc(NC(=O)O[C@@H]2CC[C@]3(C)C(CC[C@H]4OC(=O)C[C@H]43)[C@]2(C)CO)cc(OC)c1 (some centres undefined)
  -10 | -19
CCCN(CC1CC1)C(=O)CSc1nnc(Nc2ccc(C)cc2)s1
  2 | 3
Cc1cc(CN(Cc2ccccc2)C(CO)C(C)C)no1 (centres undefined)
  3 | 2
CSc1ccccc1NC(=O)CC1CSc2nc(C(C)C)cc(=O)n21 (centres undefined)
  -3 | -5
Cc1ccsc1-c1nc(CN2CCC3(CC2)CN(C)C(=O)O3)c(C)o1
  -2 | -2
CC1CCCCC12NC(=O)N(CN(Cc1ccccc1)CC(F)(F)F)C2=O (centres undefined)
  2 | 1
O=C(c1c(F)cccc1F)N1CCC(CCc2ccccc2)CC1
  3 | 2
CN(CCCNS(=O)(=O)c1ccc(C#N)cc1)C(=O)OC(C)(C)C
  6 | 4
Cc1nn(C)c(C)c1-c1cc(C(=O)N2CCCC(N3CCCC3)C2)n(C)n1 (centres undefined)
  7 | 2
Cc1ccccc1-c1nnn(Cc2cc(=O)n3c(C)cccc3n2)n1
  2 | 1
CC1(CCc2ccccc2)NC(=O)N(NC(=O)c2ccc3c(c2)CCC3)C1=O (centres undefined)
  14 | 5
COc1cccc(/C=C2/C(=O)N(c3ccc(Cl)c(Cl)c3)N=C2C)c1OCC#N
  11 | 18

Other entries:
Each structure is followed by: NPYLR7 agonist | NPYLR7 agonist max-min
Cc1cc(C(C)(O)CNC(=O)Nc2nnc(C3CC3)s2)c(C)o1 (centres undefined)
  -1 | -2
CN(CCCNC(=O)C1CSC2(C)CCC(=O)N12)c1ccccc1 (centres undefined)
  -3 | 7
CC(=O)Nc1ccc(C2=NN(Cc3nnc(-c4ccccc4)o3)C(=O)SC2)cc1
  3 | 7
COc1ccc(OCc2cc(C(=O)NC3CCOC(C)(C)C3)no2)c2ccccc12 (centres undefined)
  3 | 3
CCc1nonc1NC(=O)c1ccc(OC)c(Cl)c1
  -16 | -17
COc1ccc(-n2nnc(C(=O)OCc3nc(-c4ccc(C)cc4)oc3C)c2C)cc1
  2 | -2
c1ccn(-c2cnn(CC3CCOC3)c2)c1 (centres undefined)
  -6 | -8
Cc1[nH]n(-c2ccccc2)c(=O)c1C1=NCCN1
  -1 | -2
COc1ncccc1-c1ccc(CN2CCN(C)CC2)cn1
  2 | 1
Cc1nc(NC(=O)COc2ccccc2)sc1C
  10 | 8
CC(c1cnn(C)c1)n1ccnc1-c1cccc(O)c1 (centres undefined)
  0 | -4
CN(Cc1n[nH]c2c1CCCC2)C(=O)c1ccc2oc(CCc3ccccc3)nc2c1
  16 | 1
CC(c1ccccc1)N(Cc1ccc(C(F)(F)F)cc1)Cc1nc(C(=O)NCCc2ccccn2)co1 (centres undefined)
  19 | 13
O=C(CSc1ccccc1C(=O)NC1C2CC3CC(C2)CC1C3)NC1CC1 (centres undefined)
  0 | -1
N#Cc1ccc(N2CCC(C(=O)NCC(=O)Nc3ccccc3Br)CC2)nc1
  1 | 8

In the list so far, these have a furan ring, fused or not.
Each structure is followed by: NPYLR7 agonist | NPYLR7 agonist max-min
COc1ccc2[nH]c3c(c2c1)CCN(C(=O)C=C(C)C)C3c1ccc(COC(C)=O)o1 (centres undefined)
  5 | 4
Cc1cc(C(C)(O)CNC(=O)Nc2nnc(C3CC3)s2)c(C)o1 (centres undefined)
  -1 | -2

Carrying on.
Each structure is followed by: NPYLR7 agonist | NPYLR7 agonist max-min
O=C(CC12CC3CC(CC(C3)C1)C2)Nc1nccs1
  18 | 14
Cc1noc(C)c1CNc1cc2c(cc1Cl)OCCCO2
  0 | 0
COc1ccc(Cl)c2sc(N3CCN(c4ccccc4)CC3)nc12
  4 | 3
CCc1cc(N2CCCn3nc(C(=O)NC4CC4)cc3C2)nc(N2CCCC2)n1
  -4 | -6
Cc1nc(SCC(=O)Nc2ccc(Cl)cc2)c2c3c(sc2n1)CCCC3
  -4 | -11
Nc1ncc(-c2ccccc2)c(-c2ccc(OCc3ccccc3)cc2O)n1
  2 | -2
CCOC(=O)NNC(=O)c1sc(Cc2ccc(F)cc2)nc1C
  2 | 1
COCC(=O)N1CCC(Oc2ccc(C(=O)NC(C)c3nc(C)sc3C)cc2)CC1 (centres undefined)
  5 | 2
COc1cc(OC)cc(-c2nn(-c3ccc(F)cc3)c(OC(C)=O)c2-c2ccc(NC(=O)c3ccc(Cl)cc3)cc2)c1
  1 | 7
CN(C1CCN(c2ccccn2)CC1)S(=O)(=O)c1cn(C)cn1
  10 | 6
O=C(N[C@H]1CCCCNC1=O)c1cc(COc2ccc3c(c2)CCCC3)on1
  3&-6 | 2&1
O=C(Cc1cccs1)N1CCC(c2cn(Cc3ccc(C(F)(F)F)cc3)c3ccccc23)CC1
  2 | -8
C(=N/Nc1nc(N2CCCC2)nc(N2CCCC2)n1)/c1cccnc1
  -5 | -9
COCCc1nc2ccc(C(=O)N3CCc4[nH]c5ccc(OC)cc5c4C3)cc2o1
  20 | 18
CCCN(CC(=O)Nc1cc(-c2ccccc2)nn1-c1ccc(C)cc1C)C(=O)Nc1ccc(F)c(F)c1
  19 | 20

(further entries)
Each structure is followed by: NPYLR7 agonist | NPYLR7 agonist max-min
O=C(CC(c1ccccc1)c1ccc2c(c1)OCO2)NCCN1CCOC1=O (centres undefined)
  -2 | -6
Cc1cc(C2CCCN(Cc3cc(Cl)ccc3OCC#N)C2)n[nH]1 (centres undefined)
  5 | 0
O=C(NC1CC1)C1CNCCN1C(=O)c1ccc(Cn2cccn2)o1 (centres undefined)
  1 | -3
CCC1CN(C)c2ccccc2CN1CCC(=O)NC (centres undefined)
  4&9 | 3&5
CCOc1ccccc1CN1CCNC(=O)C1CC(=O)NCc1cc(C)n(C)n1 (centres undefined)
  2&-1 | 0&-5
COC(=O)c1cccn2cc(COC(=O)C(C)C)nc12
  8 | 0
CCC(C(=O)N1CCN(c2cc(Oc3cccc(Cl)c3)ncn2)CC1C)c1ccccc1 (centres undefined)
  -6 | -3
O=C(O)C1(CCOc2ccccc2)CCCN(c2ncccn2)C1 (centres undefined)
  2 | -3
Cc1noc(-c2ccc(OC(F)(F)F)cc2)c1C(=O)NC(C)c1ccccc1 (centres undefined)
  5 | 0
CCN(CC)CCNC(=O)c1cc(NC(=O)c2cc(C(F)(F)F)cc(C(F)(F)F)c2)ccc1N1CCN(c2ccccc2OC)CC1
  18 | 29
CCOC(=O)c1cc(-c2ccc(N3CCN(C(=O)c4cnn(C)c4Cl)CC3)cc2)n(-c2ccccc2Cl)n1
  5 | 1
O=C(Cc1ccc(-c2ccccc2)cc1)NC1CCC(n2cc(C(=O)N3CCCC3)nn2)CC1 (centres undefined)
  22 | 13
CCc1nc2n(n1)C(=O)C(C(c1ccccc1Cl)N1CCCC1)S2 (centres undefined)
  -1 | 14
CCOCCNC(=O)c1ccc(-n2nc(C(=O)OCC)c3c2-c2ccccc2C3)cc1
  3 | -6
CC(C)CC1(C(=O)O)CCCC1
  0 | -1

(continued)
Each structure is followed by: NPYLR7 agonist | NPYLR7 agonist max-min
Cc1ccc(-n2nnc(C(=O)OCc3ccccc3C)c2C)cc1
  -22 | -24
Cc1cc(Oc2ccccc2Cl)nc(SCc2cccc(C(F)(F)F)c2)n1
  1 | 14
CCc1cc(NC(C)c2cccc(N3CCOC3=O)c2)ncn1 (centres undefined)
  6 | 1
CCCC(CCC)C(=O)Oc1cc(C)[nH]c(=O)c1[N+](=O)[O-]
  3 | 3
CNC(=O)c1ccc2n1CCN(C(=O)OCc1ccccc1)C2C (centres undefined)
  0 | -2
Cc1nn(C)cc1S(=O)(=O)NCCN(C)C
  0 | -1
Cc1ccnc2nc(C(=O)N3CCCC3CN3CCCC3)nn12 (centres undefined)
  3 | 3
Cc1ccc(-c2nnc(NC(=O)C3CCCN3C(=O)c3cc(C(F)(F)F)cc(C(F)(F)F)c3)s2)cc1 (centres undefined)
  -6 | -6
Cc1ccccc1N1CCN(C(=O)c2cc(-c3ccccc3F)n3nc(C(C)(C)C)cc3n2)CC1
  11 | 14
CN1CCn2nc(C(=O)NC3c4ccccc4-c4ccccc43)cc2C1
  -3 | -5
COc1ccccc1C(=O)N1CCC(n2c(=O)oc3cccc(C)c32)CC1
  -20 | -17
CCOCCOc1nc(-c2ccc(Cl)c(Cl)c2)n(-c2cccc(NC(=O)c3ccc([N+](=O)[O-])cc3)c2)n1
  8 | 9
CC1(Cc2cccc(C(F)(F)F)c2)C(=O)Nc2cccc(Cl)c21 (centres undefined)
  2 | 2
CC(c1ccc2c(c1)OCCCO2)n1cc2ncccc2c1O (centres undefined)
  -6 | -7
CCn1ccccc1=N
  3 | 3

Additional results follow:
Each structure is followed by: NPYLR7 agonist | NPYLR7 agonist max-min
O=C(Cc1n[nH]c(=O)c2ccccc12)OCc1cc(=O)n2ccsc2n1
  4 | 14
O=C(c1coc(CN(Cc2ccc(F)cc2)Cc2cccc(Cl)c2Cl)n1)N1CCOCC1
  1 | 13
O=S(=O)(NNc1ccc(Cl)cc1)c1ccc(F)c(F)c1
  -1 | -1
C=CCNC(=O)Cn1nc2n(c(=O)c1=O)CCN2c1ccc(F)cc1
  9 | 6
CC1=C/C(=N/Nc2ccccc2Cl)CC1
  20 | 17
O=C(NNC(=O)C1C2C=CC(C2)C1C(=O)O)c1ccc(OC2CCCC2)cc1 (centres undefined)
  1 | 4
COc1ccccc1CNCc1cnn(Cc2ccccc2Cl)c1
  9 | 6
CC1C(=O)N(c2cccc(Br)c2)CCN1C(=O)Nc1cccc(Cl)c1 (centres undefined)
  -1 | 5
Cc1nn(C)c(C)c1CN(C(=O)CCc1nc(-c2ccco2)no1)C(C)C
  2 | 0
COc1ccc(CCN(C)c2cc(Cl)nc(SCc3cccc(C(=O)NCCc4ccccn4)c3)n2)cc1OC
  -2 | 5
COc1ccc(CN(C(=O)Nc2ccc(C(C)C)cc2)C(C)C)cc1OS(C)(=O)=O
  0 | 7
NC(=O)NC(=O)CCN(Cc1ccc(-c2ccccc2Cl)s1)C1CC1
  9 | 5
CN1CCC(Cc2noc(CCc3ccc4c(c3)OCO4)n2)CC1
  0 | -3
Cc1cc(C)nc(NNS(=O)(=O)c2ccc(C(F)(F)F)cc2)n1
  2 | 1
O=C(c1csc(CSc2nnc(-c3ccco3)n2-c2ccccc2Cl)n1)N1CCC(n2c(=O)[nH]c3ccccc32)CC1
  14 | 9
COc1ccc(NC(=O)C2CCCNC2)c(NC(=O)C(C)C)c1 (centres undefined)
  -3 | 7
CC1CCC/C(=N\Nc2nc3c(c(=O)n(C)c(=O)n3C)n2Cc2ccccc2Cl)C1 (centres undefined)
  0 | 13
CCc1c(C)c(C(=O)NC(C)c2ccccc2)n(Cc2cccc(C)c2)c1C (centres undefined)
  4 | 3

Of the compounds above, 12 have an NH in an aromatic ring:
Each structure is followed by: NPYLR7 agonist | NPYLR7 agonist max-min
Cc1ccc(N=Nc2c(O)[nH]c3ccc([N+](=O)[O-])cc23)cc1C
  -3 | -9
COc1ccc2[nH]c3c(c2c1)CCN(C(=O)C=C(C)C)C3c1ccc(COC(C)=O)o1 (centres undefined)
  5 | 4
O=c1[nH][nH]c2c1SCc1ccccc1-2
  3 | 4
COc1ccc(Br)cc1-c1nnc2n(C(C)C)c3c(=O)[nH]c(=O)n(C)c3n12
  9 | 4
CCOC(=O)c1c(C)c(=O)oc2c1c(=O)[nH]n2-c1ccccc1
  -7 | -6
Cc1[nH]n(-c2ccccc2)c(=O)c1C1=NCCN1
  -1 | -2
CN(Cc1n[nH]c2c1CCCC2)C(=O)c1ccc2oc(CCc3ccccc3)nc2c1
  16 | 1
COCCc1nc2ccc(C(=O)N3CCc4[nH]c5ccc(OC)cc5c4C3)cc2o1
  20 | 18
Cc1cc(C2CCCN(Cc3cc(Cl)ccc3OCC#N)C2)n[nH]1 (centres undefined)
  5 | 0
CCCC(CCC)C(=O)Oc1cc(C)[nH]c(=O)c1[N+](=O)[O-]
  3 | 3
O=C(Cc1n[nH]c(=O)c2ccccc12)OCc1cc(=O)n2ccsc2n1
  4 | 14
O=C(c1csc(CSc2nnc(-c3ccco3)n2-c2ccccc2Cl)n1)N1CCC(n2c(=O)[nH]c3ccccc32)CC1
  14 | 9

Source: PubChem BioAssay (Fisher Drug Discovery Resource Center)
